Screens from PubChem BioAssay.
NPYLR7 ag – activates Aedes aegypti NPYLR7 receptor; AID 1259423; activation, % at 10 µM; HEK293T NPYLR7/Galpha15, GCaMP6s calcium fluorescence; 0.15% of 270,000 active; in the data active = activation above about 40%;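 also: 0% = vehicle and 100% = reference agonist at the receptor; some compounds past the cut are filed as inactive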
NPYLR7 ag max-min – also measured in NPYLR7 ag; calls as there; activation, %; measured here: Max-Min RFU normalised activation; some inactives read as strong as hits;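 span of the calcium signal over five minutes; 0% = vehicle and 100% = native peptide agonist; compound fluorescence can raise it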
Active calls of the source: *; & = joins results of further samples. Some of the compounds tested. The share of hits here may be higher or lower than overall.

SMILES | NPYLR7 ag | NPYLR7 ag max-min
COc1ccc(OC)c(NC(=O)c2c(C)c(-c3ccccc3)nc3ccccc23)c1 | -3 | -7
COC(=O)c1ccc(N2C(=O)CC(NCCc3ccc(OC)cc3)C2=O)cc1 (centres undefined) | 1 | -1
CCCNC(=O)Cn1nc2c(c1NC(=O)c1cc(Cl)ccc1OC)CSC2 | 3 | 13
CC(Sc1nncn1C1CC1)C(=O)Nc1cccc([N+](=O)[O-])c1 (centres undefined) | 10 | 3
Nc1ncnc(NN=Cc2cccnc2)c1[N+](=O)[O-] | -1 | 13
CN1C(=O)CC(C)(C(=O)O)c2ccccc21 (centres undefined) | -5 | -4
Cc1ccccc1NC(=O)c1nn(C)cc1[N+](=O)[O-] | -3 | -7
CC1Nc2ccccc2NC1C (centres undefined) | -10 | -18
Cc1ccccc1-c1ccccc1C(=O)N1CCC2(CN(C)C(=O)O2)C1 (centres undefined) | 3 | 2
O=C(NCC(c1ccccc1)c1ccccc1)c1cc2c(nc1Cl)CCC2 | -11 | -14
CCOC(=O)N1CCN(C(=O)c2cc(-c3ccccc3)n(-c3ccc(OC)cc3OC)c2C)CC1 | -2 | 3
C=CCN(Cc1csc(COc2cc(C)cc(C)c2C)n1)C(=O)c1ccco1 | -1 | 11
O=C1CN(CC(=O)N2CCCCC2CCN2CCOCC2)CCN1 (centres undefined) | -4 | -5
CN=c1scc(-c2ccc(Cl)cc2Cl)n1/N=C\c1ccsc1 | 0 | 0
Cc1c(C(=O)N2CCC(n3nccc3NC(=O)C3CC3)CC2)cnc2ccnn12 | 14 | 4
O=C(CN(Cc1ccco1)S(=O)(=O)c1cccc(Cl)c1)NCC(F)(F)F | 0 | -3
COc1ccc(C)cc1N1CCn2c1nc1c2c(=O)n(CC(C)=O)c(=O)n1C | 0 | -1
COc1cn(CC(=O)Nc2cc(C)on2)c(CN2CCC(C)CC2)cc1=O | -1 | 0
COc1ccc(NC(=O)N2CCN(C(C(=O)NCCc3ccccc3)C3CCCC3)CC2)cc1 (centres undefined) | -10 | -7
CC(c1ccc(Cl)cc1)C(C)N(C)C(=O)NCc1nccn1C (centres undefined) | -25 | -25
CC1=C(CCC(=O)O)c2cc3nc(cc4[nH]c(cc5[nH]c(cc1n2)c(C)c5C(C)O)c(C)c4C(C)O)C(C)=C3CCC(=O)O (centres undefined) | -5 | -9
O=C(Nc1ccccc1)O/N=C\c1ccccc1 | -8 | -11
CCOC(=O)C1=C(C)Nc2ncnn2C1c1ccc(OC(F)F)c(OC)c1 (centres undefined) | 2 | -2
O=C(Cc1ccc(O)c(Cl)c1)N1CC[C@H](CO)[C@H](O)C1 | 2 | 1
O=C(O)CN1C(=O)/C(=C\c2ccc(F)c(Br)c2)SC1=S | -5 | -12
CN1C(=O)C(=O)C(=C(O)c2ccccc2)C1c1ccc(I)cc1 (centres undefined) | 8 | 5
O=C(Nc1cccnc1)c1ccc(-c2ccc(Cl)cc2)s1 | 3 | 1
CC1C(=O)N(c2ccc(F)cc2F)CCN1C(=O)c1ccco1 (centres undefined) | 1 | 12
CCCC1COCCN1C(=O)c1cc2ncc(CCO)cn2n1 (centres undefined) | 2 | -10
Cc1ccc(C)c(-c2cn3c(C(=O)N(C)Cc4cn(C)nc4C)csc3n2)c1 | 14 | 6
COCCOc1nc(-c2ccccc2F)n(-c2ccc(NC(=O)c3cccc(F)c3)cc2)n1 | 15 | 28
COc1ccc(N2CCN(C3CCCN(C4Cc5ccccc5C4)C3)CC2)cc1 (centres undefined) | -6 | -8
Cc1nc(COc2ccc(C(=O)OCC(=O)Nc3ccc(N=Nc4ccccc4)cc3)cc2)no1 | 4 | 0
CCOC(=O)c1c(C)nn(-c2ccc(C(=O)Nc3cccc(Oc4ccccc4)c3)cc2)c1C | 1 | -3
N#CCOc1ccc(NC(=O)Nc2cccc(Cl)c2)cc1 | 4 | 7
OC[C@H]1O[C@@H](n2cnc3cncnc32)[C@H](O)[C@@H]1O | 0 | -34
COc1ccc(OCCn2c(C3CC(=O)N(C(C)(C)C)C3)nc3ccccc32)cc1 (centres undefined) | 4 | -2
Cc1ccc(N2C(=O)/C(=C/c3ccc(-c4ccc(Cl)c(Cl)c4)o3)C=C2c2ccccc2)cc1[N+](=O)[O-] | 14 | 9
COc1ccc(OC)c(S(=O)(=O)NCc2nnnn2-c2ccc(C)cc2)c1 | 0 | -1
O=c1oc2c(CN3CC4CC(C3)c3cccc(=O)n3C4)c(O)ccc2cc1-c1nc2ccccc2s1 (centres undefined) | 303* | 372*
CCc1ccc2c(C)nc(NC3=NC(C)(C)C=C(C)N3)nc2c1 | 24&4 | 17&2
CC(=O)N1CCC(c2nnc(C3CC3)s2)CC1 | -1 | 2
CN(Cc1ccc(N(C)C)cc1)C(=O)C1CCC(=O)N1 (centres undefined) | 1 | 7
NCCCCN=C(N)N | 4 | -9
CCn1c(C)cc(O)c(C(c2cccs2)N2CCC(C)CC2)c1=O (centres undefined) | 11 | 3
CC(C)Nc1ccc(C(=O)N[C@@H]2CCCc3ccccc32)cn1 | -16 | -21
Cc1cccc(COn2c(=O)c(-c3ccco3)[n+]([O-])c3ccccc32)c1 | 0 | -9
Cc1cc(C)c2ccc[n+]([O-])c2c1O | 3 | 1

Brought forward from above: two entries; new compounds follow.
SMILES | NPYLR7 ag | NPYLR7 ag max-min
Cc1cccc(COn2c(=O)c(-c3ccco3)[n+]([O-])c3ccccc32)c1 | 0 | -9
Cc1cc(C)c2ccc[n+]([O-])c2c1O | 3 | 1
O=C(Cc1ccccc1)Nc1ccnn1C1CCN(C2CCSCC2)CC1 | 1 | -3
Cc1ccc(OCC2c3ccsc3CCN2C(=O)CN(C(=O)c2ccccc2Cl)C(C)(C)C)c(C)c1 (centres undefined) | -2 | 2
CC(=O)Oc1cccc(/C=C2N=C(/C=C/c3ccc(Cl)cc3)OC/2=O)c1 | 0 | -5
CC(C)C(=O)Nc1sc2c(c1C#N)CCC2 | -4 | -13
N#CC1C(=N)Oc2cc(O)ccc2C1c1ccc(Br)cc1 (centres undefined) | 0 | -2
Cc1n[nH]c(C)c1CN1CCn2nc(C(=O)NCc3ccccn3)cc2C1 | 6 | 3
O=C(O)C1COC2(CCN(C(=O)C3CCC3)CC2)N1C(=O)c1ccco1 (centres undefined) | -12 | -4
O=C(c1csc(CSc2nnc(Cc3ccccc3)n2-c2cccc(C(F)(F)F)c2)n1)N1CCN(Cc2ccccc2)CC1 | 8 | 15
O=C(COC(=O)C1CCCC1)NCCNC(=O)COC(=O)C1CCCC1 | 5 | 3
Cc1ncccc1C(=O)N1CC[C@@H](N2CCN(c3ccccc3F)CC2)[C@H](O)C1 | 4 | 0
Cn1cc(S(=O)(=O)NCc2ccc(F)cc2)c(=O)n(C)c1=O | 3 | 0
COc1ccc(-c2ccccc2NC(=O)C2CCCN2C(=O)c2ccoc2)cc1 (centres undefined) | -5 | -7
O=C(c1ccc(F)cc1)C1CCN(CCCCc2ccccc2)CC1 | -12 | -18
Cc1noc(C)c1CCC(=O)Nc1ccc(N2CCCC2)cc1 | 2 | -1
Fc1cccc(F)c1Cn1ccnc1-c1cnc[nH]1 | 16 | 8
COc1ccc(C(=O)NC2CC2)c(OC2CCN(CC3CCOC(C)(C)C3)CC2)c1 (centres undefined) | 1 | -4
Cc1c(C)n2c3c(=O)n(Cc4ccc(Cl)cc4)c(=O)n(C)c3nc2n1CCCO | 4 | -1
CC(C)(C)NCc1nc(-c2ccc(F)cc2)no1 | 1 | -2
Cc1nn(-c2cccc(Cl)c2)c(C)c1C(=O)NCc1ccncc1 | -10 | -4
CSc1ncccc1C(=O)N(CCC#N)CC1CCCO1 (centres undefined) | 1 | 9
S=C1SC2CCCCC2S1 (centres undefined) | -2 | 1
C=CCn1c(SCC(=O)NCc2ccccc2)nnc1-c1cccc(C)c1 | 16 | 10
Cc1cc(C(=O)N/N=C\c2cccnc2)n[nH]1 | -5 | -11
Cn1c(=O)c2c(nc(CN3CCCCC3)n2Cc2ccc(Cl)c(Cl)c2)n(C)c1=O | 9 | 4

In a second layout: 19 of the compounds above
The line under a structure holds: NPYLR7 ag	NPYLR7 ag max-min
- CC(=O)Oc1cccc(/C=C2N=C(/C=C/c3ccc(Cl)cc3)OC/2=O)c1
→ 0	-5
- CC(C)C(=O)Nc1sc2c(c1C#N)CCC2
→ -4	-13
- N#CC1C(=N)Oc2cc(O)ccc2C1c1ccc(Br)cc1 (centres undefined)
→ 0	-2
- Cc1n[nH]c(C)c1CN1CCn2nc(C(=O)NCc3ccccn3)cc2C1
→ 6	3
- O=C(O)C1COC2(CCN(C(=O)C3CCC3)CC2)N1C(=O)c1ccco1 (centres undefined)
→ -12	-4
- O=C(c1csc(CSc2nnc(Cc3ccccc3)n2-c2cccc(C(F)(F)F)c2)n1)N1CCN(Cc2ccccc2)CC1
→ 8	15
- O=C(COC(=O)C1CCCC1)NCCNC(=O)COC(=O)C1CCCC1
→ 5	3
- Cc1ncccc1C(=O)N1CC[C@@H](N2CCN(c3ccccc3F)CC2)[C@H](O)C1
→ 4	0
- Cn1cc(S(=O)(=O)NCc2ccc(F)cc2)c(=O)n(C)c1=O
→ 3	0
- COc1ccc(-c2ccccc2NC(=O)C2CCCN2C(=O)c2ccoc2)cc1 (centres undefined)
→ -5	-7
- O=C(c1ccc(F)cc1)C1CCN(CCCCc2ccccc2)CC1
→ -12	-18
- Cc1noc(C)c1CCC(=O)Nc1ccc(N2CCCC2)cc1
→ 2	-1
- Fc1cccc(F)c1Cn1ccnc1-c1cnc[nH]1
→ 16	8
- COc1ccc(C(=O)NC2CC2)c(OC2CCN(CC3CCOC(C)(C)C3)CC2)c1 (centres undefined)
→ 1	-4
- Cc1c(C)n2c3c(=O)n(Cc4ccc(Cl)cc4)c(=O)n(C)c3nc2n1CCCO
→ 4	-1
- CC(C)(C)NCc1nc(-c2ccc(F)cc2)no1
→ 1	-2
- Cc1nn(-c2cccc(Cl)c2)c(C)c1C(=O)NCc1ccncc1
→ -10	-4
- CSc1ncccc1C(=O)N(CCC#N)CC1CCCO1 (centres undefined)
→ 1	9
- S=C1SC2CCCCC2S1 (centres undefined)
→ -2	1

Next entries follow:
SMILES | NPYLR7 ag | NPYLR7 ag max-min
COc1ccc(S(=O)(=O)N2CCCCC2CC(=O)Nc2ccc(F)cc2F)cc1 (centres undefined) | 5 | 1
Cc1ccc(OCC(=O)N2CC[C@@H](N3CCN(c4ccccc4F)CC3)[C@H](O)C2)cc1 | 4 | 0
COc1nn(C)cc1-c1nnc(SCCC(C)C)n1C | 8 | 9
O=C(NCc1cccs1)c1cc(N2CCOCC2)nc2ccccc12 | 25 | 29
COC(=O)c1ccc(COC(CN2CCN(C(=O)c3c(-c4c(Cl)cccc4Cl)noc3C)CC2)c2ccc(Cl)cc2)cc1 (centres undefined) | 5 | 0
CSC1=C(C#N)C(c2ccsc2)CC(=O)N1 (centres undefined) | 7 | 14
Cc1ccc2c(c1)CCCN2C(=O)CN(Cc1ccccn1)CC1CCCO1 (centres undefined) | 0 | 1
COc1ccc(-n2nc(-c3ccccc3Cl)cc2C(=O)NC(C)c2ccccc2)cc1 (centres undefined) | -2 | 2
COc1cccc(C=CC(=O)N2CCCC2c2nc3ccccc3s2)c1OC(F)F (centres undefined) | -7 | -5
Cc1cccc(C2=NN(C(=O)CN3CCCC3)C(c3ccc(F)cc3)C2)c1 (centres undefined) | -15 | -14
COC(=O)[C@H](CCSC)NC(=O)Nc1cc(-c2n[nH]c(=O)c3ccccc23)ccc1C | 1 | 52
Cc1c(C(=O)NCc2cccc([N+](=O)[O-])c2)sc(=O)n1CC(=O)c1ccc(F)cc1 | 9 | 3
C=C(C)C1SC(=O)NC1=O (centres undefined) | 5 | 3
CCOC(=O)c1cc(-c2cccc(NC(=O)c3ccc4c(c3)OCCN4C)c2)n(-c2cccc(F)c2)n1 | 25 | 13
CC1CCCCN1C1CN(Cc2ccc(CN(C)S(C)(=O)=O)o2)C1 (centres undefined) | -8 | -10
COc1ccc(C(=O)N/N=c2\oc3c(OC)cccc3cc2-c2nc3ccccc3[nH]2)cc1 | -1 | -8
CC(C)CCn1c(=O)n(CC2CCCN(C)C2)c2cc(C(=O)O)cnc21 (centres undefined) | -5 | -6
CN(C(=O)CNC(=O)c1ccsc1)C1CC(=O)N(Cc2ccccc2)C1=O (centres undefined) | -1 | 21
O=C1NC2(CCN(C(=O)c3cccc([N+](=O)[O-])c3)CC2)Nc2cccc(F)c21 | 4 | 6
COc1cccc([C@@H]2CCN(Cc3ccc(C(=O)O)cc3)C[C@H]2O)c1 | 1 | 8
O=[N+]([O-])c1nn(-c2ccc(Cl)cc2)n(O)c1=Nc1ccc(F)cc1 | 34 | 36
O=S(=O)(NC(=S)NC1CCCCC1)c1ccc(F)cc1 | -2 | -6
CC(=O)OC(C(=O)N[C@H](c1nnc2c(C(F)(F)F)cccn12)C(C)C)c1ccccc1 (some centres undefined) | -6 | -10
COCCOC(=O)C1=C(C)NC2=C(C(=O)CCC2)C1c1ccc(C)s1 (centres undefined) | -8 | -13
CSc1nc(CN2CCCc3cc(C)ccc32)cc(=O)[nH]1 | 8 | 7
COc1ccc(OCCN(C)Cn2ccc(C(F)(F)F)n2)cc1 | 4 | 2
Cc1nc(-c2ccsc2)ccc1C(=O)N1CCC(C2(C)NC(=O)NC2=O)CC1 (centres undefined) | 5&-4 | 1&-3
COCCNC(=O)c1cccc(-c2nc3c(NCC4CC4)nccc3[nH]2)c1 | -5 | -11
CC(Cc1noc(-c2ccncc2)n1)N(C)C(=O)OC(C)(C)C (centres undefined) | 7 | 770
Cc1cc(C)c2c(Cn3ccnc3)cc(=O)oc2c1 | 3 | 1
CCOC(=O)c1[nH]c(C)c(C(=O)CN(C(=O)Nc2cccc(Cl)c2)C2CC2)c1C | 18 | 26
